Source: PubChem BioAssay
MgrA-DNA mod: S. aureus MgrA-DNA binding modulation. 84,000 compounds, 0.13% hits. fluorescence polarization. inhibition, %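 (about 10 µg/mL by stock and volumes)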;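 active = above 50% in either of two replicates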;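 also: 0% = protein plus DNA without compound and 100% = DNA alone without protein; higher means less MgrA bound to DNA so lower polarization; one replicate is shown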
Sa helicase inh: S. aureus DNA helicase inhibition; inhibition, %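 (tested at about 80 µM)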; purified S. aureus helicase, fluorescence unwinding assay; about half of the hits fall short of the stated cut; 120,000 compounds, 0.05% hits;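 active = both duplicates at 50% or more, or one of them with a favoured structure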;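 also: 0% = mean of negative control wells and 100% = mean of positive control wells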
Numbers without * were called inactive; . = no result given; & = joins results of further samples. These rows are one share of the data; rates above refer to the full screens.

Results follow in this order: MgrA-DNA mod	Sa helicase inh
Cc1ccc2nc(-c3ccc(NC(=O)C(C)N4CCN(C(=O)c5ccco5)CC4)cc3)sc2c1 (stereo unspecified)
  .	-7.0
O=C(CSc1nc2cc(Cl)ccc2s1)Nc1ccccc1Cl
  0.5	10.0
N#CCCC(=O)c1ccccc1
  2.0	2.0
CCOc1cc(/C=C2/SC(=S)N(C)C2=O)cc(Br)c1O
  .	-119.0
CC(=Nc1ccc(S(=O)(=O)N2CCOCC2)cc1)Nc1ccc(C(=O)O)c(O)c1
  -0.4	-3.0
O=C(Cn1[nH]c(=O)c2ccccc2c1=O)Nc1cccnc1
  .	-15.0
O=C(Cn1nnc2ccccc2c1=O)NCCOc1nnnn1-c1cccs1
  .	-11.0
N=S(=O)(c1ccc(Cl)cc1)c1cccs1 (stereo unspecified)
  -2.3	.
N#C/C(=C(/O)CSc1ccccc1C(=O)O)c1nc2ccccc2s1
  .	-1.0
Cc1nn(-c2ccccc2)c(C)c1/C=N/NC(=O)CCc1ccc(S(=O)(=O)N2CCOCC2)cc1
  .	19.0

(continued)
Results follow in this order: MgrA-DNA mod	Sa helicase inh
CC1CCCN(C(=O)Cc2cccs2)C1 (stereo unspecified)
  2.5	19.0
CN1Cc2ccccc2CC1C(=O)O (stereo unspecified)
  -5.3	10.0
CN(C)C(=O)COC(=O)c1oc2ccccc2c1COc1ccccc1
  .	7.0
CCCCn1c(O)c(N=NC(=O)CNc2ccc(OC)cc2)c2ccccc21
  .	-6.0
Cc1ccc(-n2nnnc2-c2c[nH]c3cc(Cl)c(F)cc23)cc1
  -0.1	.
CC1=C(C(=O)OCCc2ccccc2)C(c2ccc(N(C)C)cc2)NC(=S)N1 (stereo unspecified)
  2.5	3.0
C/C(=N\O)C(=O)C(CN1CCCCC1)CN1CCCCC1
  -1.1	3.0
C=CCN1C(=O)/C(=c2\sc3nc(-c4ccccc4)nn3c2=O)c2ccccc21
  -0.2	6.0
CC1CCCCN1CCNC(=O)c1ccc2c(Cl)c3c(nc2c1)CCCC3 (stereo unspecified)
  0.4	1.0
CC(=O)O/N=C(\N)Cc1csc2ccc(Cl)cc12
  .	-10.0

(further entries)
Results follow in this order: MgrA-DNA mod	Sa helicase inh
NC(=Nc1ccccc1)Nc1ccccc1
  0.0	.
COc1cc(/C=C2\C(=O)N(c3ccc(Cl)c(C(=O)O)c3)N=C2C)c([N+](=O)[O-])cc1OC
  -1.7	.
Cc1ccc(CC(=O)Nc2ccc(S(=O)(=O)NCc3ccco3)cc2)cc1C
  .	-11.0
COc1ccc(C=C2C(=O)OC(c3ccccc3)OC2=O)c(OC)c1OC (stereo unspecified)
  22.1	6.0
CCOC(=O)Cn1c2ccc(Cl)cc2c2nc3ccccc3nc21
  .	21.0
CCS(=O)(=O)c1cccc(C(=O)Nc2nc3c(s2)C(=O)CC(C)(C)C3)c1
  .	9.0
Cn1c(C(=O)N2CCC(C(=O)O)CC2)cc2sccc21
  -2.6	8.0
COc1ccc(-c2c(C)nn(-c3ccccc3)c2NC(C)=O)cc1OC
  -2.4	12.0
Cc1sc2nc3n(c(=O)c2c1C)NC(=O)CC3
  -1.1	7.0
Cc1ccc(N(O)C(=O)Nc2ccccc2)cc1
  0.1	-7.0

Reformatted with values ahead of the structure: part of the list above
| MgrA-DNA mod | Sa helicase inh | Structure |
| --- | --- | --- |
| 0.0 | . | NC(=Nc1ccccc1)Nc1ccccc1 |
| -2.6 | 8.0 | Cn1c(C(=O)N2CCC(C(=O)O)CC2)cc2sccc21 |
| . | -11.0 | Cc1ccc(CC(=O)Nc2ccc(S(=O)(=O)NCc3ccco3)cc2)cc1C |
| . | 9.0 | CCS(=O)(=O)c1cccc(C(=O)Nc2nc3c(s2)C(=O)CC(C)(C)C3)c1 |
| -2.4 | 12.0 | COc1ccc(-c2c(C)nn(-c3ccccc3)c2NC(C)=O)cc1OC |
| -1.1 | 7.0 | Cc1sc2nc3n(c(=O)c2c1C)NC(=O)CC3 |
| . | 21.0 | CCOC(=O)Cn1c2ccc(Cl)cc2c2nc3ccccc3nc21 |

(listing goes on)
Results follow in this order: MgrA-DNA mod	Sa helicase inh
CCO/C=C1/C(=O)N(c2ccc(S(=O)(=O)N3CCOCC3)cc2)C(=O)c2ccccc21
  .	-17.0
COc1ccc(OC/C(N)=N/O)cc1
  3.5	.
COc1ccc(S(=O)(=O)NCc2ccco2)cc1OC
  .	9.0
O=C(N1CCN(c2ccccc2)CC1)n1ccnc1
  .	7.0
CC(=O)NS(=O)(=O)c1ccc(NC(=O)C2CC(=O)N(c3ccc(F)cc3)C2)cc1 (stereo unspecified)
  0.5	-8.0
CN1C(=O)/C(=C/C=C2/CCCN2C)N(C)C1=S
  -5.2	-7.0
Cc1ccc(/C=N/n2c(-c3ccc(Cl)cc3)csc2=NCC2CCCO2)o1 (stereo unspecified)
  .	23.0
CN(C(=O)c1ccccc1F)C(C(=O)Nc1ccc2c(c1)OCCO2)c1ccccc1 (stereo unspecified)
  .	4.0
O=C(CSc1nnc(C2CC2)n1Cc1ccccc1)c1cc2ccccc2o1
  .	-13.0
O=C(Nc1ccc(CN2CCCCC2)cc1)c1cccnc1Cl
  -3.2	20.0

The results go on.
Results follow in this order: MgrA-DNA mod	Sa helicase inh
O=C(Cc1csc(-c2ccccc2)n1)N(Cc1ccco1)Cc1cccs1
  .	-6.0
COc1ccc(CNC(=O)C(NS(=O)(=O)c2ccc3c(c2)oc(=O)n3C)C(C)C)cc1 (stereo unspecified)
  .	-14.0
Cc1nn(-c2ccccc2)c2nc(Cl)c(C(=O)O)cc12
  -0.6	-17.0
COc1ccc(NC(=O)c2ccccc2I)cn1
  -2.6	-13.0
Cc1ccc(S(=O)(=O)/N=C(/CN2CCOCC2)N2CCN(S(=O)(=O)c3ccc(C)cc3)C2C)cc1 (stereo unspecified)
  .	-25.0
COC(=O)C1CCN(C(=O)Cc2ccc(C)cc2)CC1
  1.4	12.0
CC[n+]1c(C)csc1Nc1ccc(N2CC(C)OC(C)C2)cc1 (stereo unspecified)
  -0.2&-2.3	.
O=C(O)Cc1ccc2c(c1)CCCC2
  6.3	0.0
CS(=O)(=O)c1ccc(Cl)c(C(=O)OCc2nc3ccccc3s2)c1
  .	-12.0
O=C(CSc1ccc(-c2cccs2)nn1)c1cccs1
  .	5.0

Next compounds follow.
Results follow in this order: MgrA-DNA mod	Sa helicase inh
CCOC(=O)CSc1nnc(-c2ccccc2NC(=O)c2ccccc2)o1
  2.0	1.0
c1ccc(C2=Nn3c(nnc3C3COc4ccccc4O3)SC2)cc1 (stereo unspecified)
  .	11.0
O=c1[nH]c(SCc2c(Cl)cccc2Cl)nc2ccnn12
  2.2	.
O=C(CN1C(=O)CSc2ccccc21)N/N=C/c1cccnc1
  .	17.0
Cc1nn(Cc2cccc(C(=O)NC(=O)Nc3ccc(Cl)cc3)c2)c(C)c1Br
  -0.8	.
CC(C)(C)n1nc(-c2ccc(F)cc2)c2c(N)ncnc21
  -1.1	.
COc1ccc(C2C(C(=O)NCC3CCCO3)c3ccccc3C(=O)N2C)cc1 (stereo unspecified)
  1.2	5.0
COC(=O)CSc1nnc(-c2cccs2)n1-c1ccc(OC)cc1
  .	2.0
CCCCN(C1=NC2CS(=O)(=O)CC2S1)c1ccc(Cl)cc1 (stereo unspecified)
  -1.8	17.0
Nc1ccc(-c2nc3ccccc3[nH]2)c(N)c1
  .	8.0

The closing 2 entries of the part above lead into the next:
Results follow in this order: MgrA-DNA mod	Sa helicase inh
CCCCN(C1=NC2CS(=O)(=O)CC2S1)c1ccc(Cl)cc1 (stereo unspecified)
  -1.8	17.0
Nc1ccc(-c2nc3ccccc3[nH]2)c(N)c1
  .	8.0
CN(C)C(CN)c1ccccc1 (stereo unspecified)
  .	-5.0
Cc1cc2cc(NC(=O)c3ccco3)ccc2[nH]1
  .	-22.0
CS(=O)(=O)Nc1ccc2c(c1)COC2=O
  .	-17.0
O=C(CN1C(=O)c2ccccc2C1=O)c1ccc(O)cc1O
  .	4.0
CC(c1ccco1)N(C(=O)c1ccc(C#N)cc1)c1ccccn1 (stereo unspecified)
  -0.9	-16.0
COc1cc(-c2cc(OC)c(C)cc2OC)c(OC)cc1C
  -1.6	.
c1ccc(NCc2ccc3c(c2)OCO3)nc1
  3.8	7.0
COc1ccc(NC(=O)c2cccc(Br)c2)cn1
  .	-4.0
CCOC(=O)CCN(Cc1ccco1)S(=O)(=O)c1ccc(-c2ccnc(SC)n2)s1
  1.5	.
COc1cc(O)cc(OC)c1
  .	9.0

Continued.
Results follow in this order: MgrA-DNA mod	Sa helicase inh
O=CN1CCN(C(=O)CSc2ncnc3sccc23)CC1
  .	5.0
CCc1cc2c(=O)c(-c3nc4ccccc4[nH]3)coc2cc1O
  -2.3	.
Oc1cs/c(=N/N=C/c2ccccc2)n1-c1cccc(C(F)(F)F)c1
  2.2	.
CCOC(=O)C1=C(CSCc2ccccc2)NC(=O)NC1CC (stereo unspecified)
  .	-13.0
N#CCc1nc(-c2ccc(C#N)cc2)cs1
  -9.6	.
Cc1cc(C)n2nc(C(F)(F)F)c(-c3ccccc3)c2n1
  -2.9	.
COc1ccc(/C=C/C(=O)NC2CCN(Cc3ccccc3)CC2)cc1OC
  -2.3	9.0
CCc1cc2c(=O)c(-c3nc4ccccc4[nH]3)c(CCC(=O)O)oc2cc1O
  .	-9.0
N/C(CSc1nc2ccccc2s1)=N\O
  1.9	13.0
N#CCCOc1ccccc1
  .	0.0

New compounds follow.
Results follow in this order: MgrA-DNA mod	Sa helicase inh
N#Cc1cc2c(nc1SC1CCCCC1O)CCCC2 (stereo unspecified)
  .	8.0
N#C/C(=C(/O)CN1CCN(S(=O)(=O)c2ccccc2C#N)CC1)c1nc2ccccc2[nH]1
  .	2.0
Cc1cc(SCNC(=O)c2ccccc2)nc(C(C)C)n1
  .	-20.0
CC(N=C1NS(=O)(=O)c2ccccc21)C(=O)OC(C)C(=O)Nc1ccc2c(c1)OCO2 (stereo unspecified)
  .	-9.0
CCOC(=O)C1=C(C)N=c2s/c(=C\c3cc(Br)ccc3O)c(=O)n2C1c1ccc(OC)cc1 (stereo unspecified)
  -0.5	.
NC(=O)C1CCN(C(c2ccccc2)c2nnnn2Cc2ccccc2)CC1 (stereo unspecified)
  0.4	9.0
O=C(O)c1cc(F)cc(C(F)(F)F)c1
  -5.8	.
Cc1nnn(C23CC4CC(CC(C(=O)N5CCCCCC5)(C4)C2)C3)n1
  -0.9	5.0
COCCCN=C1NS(=O)(=O)c2ccccc21
  0.0	3.0
C=CCn1cnc2c(cnn2-c2ccc(Cl)cc2)c1=O
  .	5.0

Further structures.
Results follow in this order: MgrA-DNA mod	Sa helicase inh
O=C(CSc1ccccn1)N1CCN(c2ccccc2)CC1
  1.4	-12.0
CCOc1ccc(C(=O)Cc2ccccc2)cc1
  .	-14.0
O=C(Nc1ccccc1)c1cccnc1Cl
  2.0	.
CN(C)CCOc1nc(-c2ccccc2)nc2c1oc1ccccc12
  .	-7.0
COc1ccc(C2=NN(C(=O)c3ccccc3Cl)C(c3cccc([N+](=O)[O-])c3)C2)cc1 (stereo unspecified)
  -0.8	.
N#Cc1ccc(-n2ccnc2)cc1
  0.9	.
CCN1CCN(C(=O)C(C)Sc2nc3nn(-c4ccccc4)c(=O)c-3c3n2CCCCC3)CC1 (stereo unspecified)
  .	4.0
COc1ccc(C2CC(=O)C3=C(C2)NC(=O)CC3c2ccc3c(c2)OCO3)cc1 (stereo unspecified)
  .	18.0
COC(=O)C(Cc1c[nH]c2ccccc12)NC(=O)CN1CCCCC1 (stereo unspecified)
  -0.8	.
CCOC(=O)c1c(C)oc2c1c(C=NCCO)c(O)c1ccccc12
  .	12.0

The listing continues:
Results follow in this order: MgrA-DNA mod	Sa helicase inh
O=C(O)c1ccccc1SC1CC(=O)N(C2CCCCC2)C1=O (stereo unspecified)
  .	-21.0
O=C(O)C12CCC(C(=O)O)(CC1)CC2
  -5.0	8.0
Cc1ccc(N2C(=O)/C(=C/c3cc(Br)c(N4CCOCC4)o3)C(=O)NC2=S)c(C)c1
  0.8	-4.0
Fc1ccccc1Cn1c(C2CC2)nc2ccccc21
  2.2	-5.0
O=C1CCc2cc(S(=O)(=O)N3CCN(c4cccc(Cl)c4)CC3)cc3c2N1CCC3
  .	10.0
COC(=O)c1ccc2c(c1)C(=O)c1ccccc1CO2
  -1.1	.
O=c1c2ccccc2nc(SCc2ccccc2)n1Cc1ccco1
  1.4	7.0
Cc1ccc(NCn2c(=O)sc3ccccc32)cc1
  -1.1	-1.0
CC(C)Oc1ccccc1C(N)=O
  0.5	.
N#CCC(O)(c1nc2ccccc2s1)C(F)(F)F (stereo unspecified)
  .	3.0

Continuation.
Results follow in this order: MgrA-DNA mod	Sa helicase inh
CSC(=S)Nc1ccc(Br)cc1
  -2.2	.
CC1CC(C)CN(C(=O)COC(=O)c2ccc(O)cc2)C1 (stereo unspecified)
  .	6.0
O=C1CN=C(Nc2ccccc2)N1c1ccccc1
  0.6	2.0
Oc1ccc(-c2nc(-c3ccc(F)cc3)c(-c3ccncc3)[nH]2)cc1
  -0.9	.
CNC(=O)c1c[nH]c2ccc(S(=O)(=O)Nc3ccccc3F)cc2c1=O
  .	-19.0
O=C(C1CCCN1c1nnc(N2CCCC2=O)s1)N1CCN(c2ccccc2)CC1 (stereo unspecified)
  -1.5	9.0
N#Cc1cnn(C(=O)c2cccc(S(=O)(=O)Nc3ccc(Cl)cc3)c2)c1N
  .	8.0
CSc1nc(NCCO)c(C#N)c(-c2ccc(C(C)(C)C)cc2)n1
  .	-15.0
Cc1cc(C(=O)CONC(=O)C23CC4CC(CC(C4)C2)C3)c(C)n1C
  .	-5.0
CC1(C)OC(C)(C)/C(=C/c2ccc3cccnc3c2)C1=O
  -0.9	15.0
CCN1CCN(C(=O)c2cc(C)nn2-c2ccccc2)CC1
  .	3.0
